# Bioassay records from PubChem BioAssay.
# DUX4 txn inh – blocks DUX4-driven transcriptional activation; AID 1224904; 293T-iDUX4 ZSCAN4-Gaussia luciferase reporter, 24 h; hits give low values; activity change, negative = inhibition, % (no concentration beside the values); hit rate 0.8% among 37,000;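 active = -10% or lower and over 25 points stronger than a control reporter; inconclusive = -10% or lower with a smaller gap; inactive = above -10%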;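 also: 0% = median of neutral control wells and -100% = median of positive control wells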
# DUX4 txn inh difference – also measured in DUX4 txn inh; calls as there; Gaussia minus Italica difference, %; measured here: selective DUX4 reporter inhibition;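 worked out from the two reporters; negative = selective loss of the DUX4 reporter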
# DUX4 txn inh control – further read-out of DUX4 txn inh, marked with its call; activity change, negative = inhibition, %; measured here: Italica tet-on control reporter;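 0 = neutral control and -100 = positive control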
# * hit, by the source's call; ? = inconclusive; . = not tested or not shown. Only part of the results is shown (hit frequency here may not be typical).
1. O=C(Nc1ccccc1)N1CCCCN2[C@H](C1)[C@H](c1ccc(-c3ccncc3)cc1)[C@@H]2CO
2. CN(C)CC(=O)N1[C@@H]2c3ccc(-c4cccnc4)c(=O)n3C[C@H]1[C@H](CO)[C@H]2C(=O)NC1CCCC1
3. O=C(C[C@@H]1CC[C@H]2[C@@H](COC[C@@H](O)CN2C(=O)Cc2ccccc2)O1)NC1Cc2ccccc2C1
4. O=C(N[C@H]1CC[C@H](CCn2cc(-c3ccccc3F)nn2)O[C@H]1CO)c1ccc2c(c1)OCO2
5. O=S(=O)(N[C@H]1CC[C@H](CCn2cc(-c3cccnc3)nn2)O[C@@H]1CO)c1ccc(Cl)cc1
6. COC(=O)C[C@@H]1C[C@H]2c3cc(NC(=O)Nc4ccccc4)ccc3O[C@H]2[C@@H](CO)O1
entry no.	1	2	3	4	5	6
DUX4 txn inh	23	-3	?	-2	-1	-4
DUX4 txn inh difference	20	-5	.	-5	-6	-9
DUX4 txn inh control	2.4	2.2	.	2.4	4.2	5.1

7. CO[C@H]1CC[C@@H]2CCN(C)C(=O)C[C@H](c3ccccc3)CN(C)C(=O)c3cccc(C#N)c3OC[C@H]1O2
8. N#C[C@@H]1[C@@H](c2ccc(C#Cc3ccccc3F)cc2)[C@@H](CO)N1C(=O)C1CCC1
9. CC(C)NC(=O)Nc1ccc2c(c1)C(=O)N([C@@H](C)CO)C[C@@H](C)[C@@H](CN(C)C(=O)C1CCCCC1)OCCCC[C@@H](C)O2
10. CC(=O)N1CCCCN2[C@H](CO)[C@@H](c3ccc(-c4ccncc4)cc3)[C@H]2C1
11. CCCNC(=O)Nc1ccc2c(c1)OC[C@H](C)N(C(=O)CC)C[C@H](C)[C@H](OC)CN(C)C2=O
12. CN(C)CCCNC(=O)C[C@H]1CC[C@@H]2[C@H](COc3ccc(NC(=O)C4CCC4)cc3C(=O)N2C)O1
entry no.	7	8	9	10	11	12
DUX4 txn inh	-3	-5	0	23	1	-1
DUX4 txn inh difference	8	-2	0	6	1	3
DUX4 txn inh control	-10	-2.4	-0.9	17	0.3	-3.4

13. O=C(NCC[C@@H]1CC[C@H](NS(=O)(=O)c2ccc(Cl)cc2)[C@H](CO)O1)Nc1ccc(F)cc1
14. C[C@H]1CN([C@@H](C)CO)C(=O)c2cc(C#CCN(C)C)cnc2O[C@@H]1CN(C)Cc1cccc(C(=O)O)c1
15. COc1cccc(CNC(=O)[C@H]2[C@H](CO)[C@H]3Cn4c(ccc(-c5ccncc5)c4=O)[C@H]3N2C)c1
16. COCCN(C[C@H]1[C@H](c2ccccc2)[C@@H](CO)N1C(C)=O)C(=O)c1ccncc1
17. COc1ccc2c3c(n(C)c2c1)[C@@H](CO)N(Cc1ccccc1)CC31CCN(C)CC1
18. CN(C[C@H]1N[C@@H](CO)[C@@H]1c1ccc(C2=CCCC2)cc1)C(=O)c1cccc(F)c1
entry no.	13	14	15	16	17	18
DUX4 txn inh	4	6	10	-2	-9	1
DUX4 txn inh difference	1	3	4	-3	-3	2
DUX4 txn inh control	2.9	2.7	6.7	1.1	-6.6	-1.0

19. CCCNC(=O)[C@H]1[C@H](CO)[C@H]2Cn3c(cccc3=O)[C@@H]1N2S(=O)(=O)c1ccccc1F
20. COc1ccc(NC(=O)N(C)C[C@@H]2OCCCC[C@@H](C)Oc3ccc(NC(=O)CCCN(C)C)cc3C(=O)N([C@H](C)CO)C[C@H]2C)cc1
21. COc1ccc2c3c([nH]c2c1)[C@H](CO)N(C(=O)CN(C)C)CC31CCN(CC2CCOCC2)CC1
22. COC(=O)C[C@H]1CC[C@H]2[C@@H](COc3ccc(NC(=O)Nc4cccc(F)c4)cc3C(=O)N2C)O1
23. O=C([C@H]1[C@H](CO)[C@H]2Cn3c(ccc(-c4ccccc4)c3=O)[C@@H]1N2CCC(F)(F)F)N1CCCCC1
24. Cc1noc(C)c1S(=O)(=O)N(C)C[C@H]1OCc2ccccc2-c2c(n(C)c3ccccc23)C(=O)N([C@H](C)CO)C[C@H]1C
entry no.	19	20	21	22	23	24
DUX4 txn inh	1	-4	4	0	-8	-1
DUX4 txn inh difference	-2	-8	-13	-2	-3	-3
DUX4 txn inh control	2.4	3.5	18	2.1	-4.9	1.8

25. O=C(C[C@H]1CC[C@@H]2[C@H](COC[C@@H](O)CN2S(=O)(=O)c2ccccc2Cl)O1)NCc1ccccc1Cl
26. C[C@H]1CCn2cc(nn2)COCCNC1=O
27. COc1cccc(CN2CCCCN3[C@H](C2)[C@H](c2ccc(-c4cccnc4)cc2)[C@@H]3CO)c1
28. O=C(c1cccnc1)N1CC(=O)N2[C@@H](CO)[C@H](c3ccc(-c4ccccc4F)cc3)[C@@H]2C1
29. C[C@@H]1CN([C@H](C)CO)C(=O)c2cc(/C=C/c3ccccc3)cnc2O[C@H]1CN(C)C(=O)Cc1ccccn1
30. CCC(=O)N[C@H]1C=C[C@H](CC(=O)OC)O[C@H]1CO
entry no.	25	26	27	28	29	30
DUX4 txn inh	2	0	6	6	-3	3
DUX4 txn inh difference	2	-3	-5	1	-3	5
DUX4 txn inh control	-0.4	3.4	12	4.3	-0.4	-1.9

31. CN(C)C(=O)c1cccc(-c2ccccc2[C@H]2[C@@H](CO)N(C(=O)C3CCCCC3)[C@H]2C#N)c1
32. N#C[C@@H]1[C@H](c2ccccc2-c2cccc(F)c2)[C@H](CO)N1C(=O)C1CCOCC1
33. CC=Cc1ccc2n(c1=O)C[C@@H]1[C@@H](CO)[C@H](C(=O)N3CCCCC3)N(Cc3ccccn3)[C@H]21 (mixture of isomers)
34. COc1cccc(NC(=O)N2CC(=O)N3[C@@H](CO)[C@@H](c4ccc(C#CC5CCCCC5)cc4)[C@@H]3C2)c1
35. CCCNC(=O)N1[C@H](CO)[C@@H]2c3ccccc3N(C(=O)CC)C[C@@H]21
36. O=C(NC1CCCC1)[C@H]1[C@H](CO)[C@H]2Cn3c(ccc(-c4ccccc4)c3=O)[C@@H]1N2
entry no.	31	32	33	34	35	36
DUX4 txn inh	6	0	-1	?	2	5
DUX4 txn inh difference	-3	-8	0	.	0	6
DUX4 txn inh control	9.2	8.0	-1.0	.	1.3	-1.3

37. C/C=C/c1ccc([C@@H]2[C@@H](CNC(=O)CC3CC3)N(C(=O)CC)[C@H]2CO)cc1
38. OC[C@H]1[C@@H](c2ccc(C#Cc3ccccc3)cc2)[C@H]2CN(Cc3cncnc3)CCCCN21
39. C[C@H](O)C#Cc1ccc2c(c1)O[C@H](CN(C)C(=O)C1CCCCC1)[C@@H](C)CN([C@H](C)CO)S2(=O)=O
40. CC(C)C#Cc1ccc([C@H]2[C@@H](CO)N(C(=O)c3ccccn3)[C@H]2C#N)cc1
41. CC(C)CC#Cc1ccc([C@H]2[C@H](CO)N3C(=O)CN(S(=O)(=O)c4cccc(F)c4)C[C@@H]23)cc1
42. COc1ccccc1-c1ccc([C@H]2[C@@H](CO)N(CC3CC3)C23CN(S(C)(=O)=O)C3)cc1
entry no.	37	38	39	40	41	42
DUX4 txn inh	-1	-10	-2	-1	-7	-1
DUX4 txn inh difference	-3	8	0	-3	-4	7
DUX4 txn inh control	1.6	-18	-2.0	2.8	-3.3	-8.2

# In another format: results already given
# Values run as follows: DUX4 txn inh	DUX4 txn inh difference	DUX4 txn inh control
[38] OC[C@H]1[C@@H](c2ccc(C#Cc3ccccc3)cc2)[C@H]2CN(Cc3cncnc3)CCCCN21
 : -10	8	-18
[40] CC(C)C#Cc1ccc([C@H]2[C@@H](CO)N(C(=O)c3ccccn3)[C@H]2C#N)cc1
 : -1	-3	2.8
[37] C/C=C/c1ccc([C@@H]2[C@@H](CNC(=O)CC3CC3)N(C(=O)CC)[C@H]2CO)cc1
 : -1	-3	1.6
[42] COc1ccccc1-c1ccc([C@H]2[C@@H](CO)N(CC3CC3)C23CN(S(C)(=O)=O)C3)cc1
 : -1	7	-8.2
[41] CC(C)CC#Cc1ccc([C@H]2[C@H](CO)N3C(=O)CN(S(=O)(=O)c4cccc(F)c4)C[C@@H]23)cc1
 : -7	-4	-3.3
[39] C[C@H](O)C#Cc1ccc2c(c1)O[C@H](CN(C)C(=O)C1CCCCC1)[C@@H](C)CN([C@H](C)CO)S2(=O)=O
 : -2	0	-2.0

# Following part:
43. COc1ccc(NC(=O)N(C)C[C@@H]2OCc3cnnn3CCCC(=O)N([C@@H](C)CO)C[C@H]2C)c(OC)c1
44. COc1cccc(CNC(=O)[C@H]2[C@H](CO)[C@H]3Cn4c(ccc(-c5cccc(OC)c5)c4=O)[C@H]3N2C)c1
45. O=C(C[C@@H]1C[C@H]2c3cc(NC(=O)CC4CC4)ccc3O[C@H]2[C@H](CO)O1)NCC1CC1
46. COc1ccc(S(=O)(=O)N(C)C[C@H]2Oc3ccc(NC(=O)CCN4CCOCC4)cc3CC(=O)N([C@H](C)CO)C[C@@H]2C)cc1
47. Cc1cccc(-c2ccc([C@@H]3[C@@H](CO)N4CCCCN(S(=O)(=O)c5ccccc5F)C[C@H]34)cc2)c1
48. CCC(=O)N1[C@H](CO)[C@@H](c2ccccc2)C12CN(C(=O)c1ccc3c(c1)OCO3)C2
entry no.	43	44	45	46	47	48
DUX4 txn inh	-5	-7	2	-1	?	0
DUX4 txn inh difference	-1	-2	-3	-4	.	3
DUX4 txn inh control	-3.9	-5.5	4.9	3.2	.	-3.0

# Full records from above. Values in the order: DUX4 txn inh | DUX4 txn inh difference | DUX4 txn inh control
# `Cc1cccc(-c2ccc([C@@H]3[C@@H](CO)N4CCCCN(S(=O)(=O)c5ccccc5F)C[C@H]34)cc2)c1` is listed as ? | . | .
# `COc1ccc(NC(=O)N(C)C[C@@H]2OCc3cnnn3CCCC(=O)N([C@@H](C)CO)C[C@H]2C)c(OC)c1` is listed as -5 | -1 | -3.9

# (listing goes on)
49. C[C@@H]1CCCCO[C@H](CN(C)Cc2ccc(Cl)c(Cl)c2)[C@@H](C)CN([C@H](C)CO)C(=O)c2cc(NC(=O)Nc3ccc4c(c3)OCO4)ccc2O1
50. C/C=C/c1cccc(-c2nc(C(=O)NCCN3CCCCC3)cc3c2[C@@H](CCO)N([S@](=O)C(C)(C)C)C3)c1
51. COCC(=O)N1CC(=O)N2[C@H](C1)[C@H](c1ccc(-c3ccncc3)cc1)[C@@H]2CO
52. CO[C@@H]1CN(C)C(=O)c2cc(NC(=O)Cc3ccccc3)ccc2OC[C@H](C)N(C(=O)c2ccccc2F)C[C@H]1C
53. Cc1cc(C(=O)Nc2ccc3c(c2)C(=O)N(C)[C@H]2CC[C@@H](CC(=O)N[C@@H](C)c4ccccc4)O[C@H]2CO3)no1
54. CCCNC(=O)N1[C@H](C#N)[C@@H](c2ccccc2)[C@@H]1CO
entry no.	49	50	51	52	53	54
DUX4 txn inh	3	1	15	4	-2	-2
DUX4 txn inh difference	2	18	2	-1	0	-4
DUX4 txn inh control	0.9	-18	13	4.1	-1.7	2.4

# Brought forward from above: four compounds; new compounds follow.
51. COCC(=O)N1CC(=O)N2[C@H](C1)[C@H](c1ccc(-c3ccncc3)cc1)[C@@H]2CO
52. CO[C@@H]1CN(C)C(=O)c2cc(NC(=O)Cc3ccccc3)ccc2OC[C@H](C)N(C(=O)c2ccccc2F)C[C@H]1C
53. Cc1cc(C(=O)Nc2ccc3c(c2)C(=O)N(C)[C@H]2CC[C@@H](CC(=O)N[C@@H](C)c4ccccc4)O[C@H]2CO3)no1
54. CCCNC(=O)N1[C@H](C#N)[C@@H](c2ccccc2)[C@@H]1CO
55. CCNC(=O)C[C@H]1CC[C@H]2[C@@H](COc3ccc(NS(C)(=O)=O)cc3C(=O)N2C)O1
56. C/C=C/c1ccc([C@@H]2[C@H]3CN(C(=O)Nc4cc(F)ccc4F)CCCCN3[C@H]2CO)cc1
57. C[C@H](CO)N1C[C@H](C)[C@@H](CN(C)Cc2ccc3c(c2)OCO3)OCCCC[C@H](C)Oc2ccc(N(C)C)cc2C1=O
58. Cc1cccc(S(=O)(=O)N2CC[C@@H]3[C@@H](CO)N(C)c4ccc(-c5ccccc5F)cc4[C@@H]32)c1
59. CC(=O)N1[C@@H]2c3cccc(=O)n3C[C@@H]2[C@@H](CO)[C@@H]1C(=O)N[C@H](C)c1ccccc1
60. CO[C@H](CN(C)C(=O)c1ccccc1F)[C@@H](C)CN([C@H](C)CO)S(=O)(=O)c1ccc(Cl)cc1
61. N#C[C@H]1[C@@H](c2ccccc2-c2cccc(F)c2)[C@H](CO)N1C(=O)CN1CCOCC1
62. O=C(C[C@H]1CC[C@H](NS(=O)(=O)c2ccccc2)[C@@H](CO)O1)NCc1ccc(Cl)c(Cl)c1
entry no.	51	52	53	54	55	56	57	58	59	60	61	62
DUX4 txn inh	15	4	-2	-2	9	?	-1	?	9	-2	-5	8
DUX4 txn inh difference	2	-1	0	-4	9	.	1	.	19	-5	-2	9
DUX4 txn inh control	13	4.1	-1.7	2.4	0.0	.	-1.5	.	-9.9	3.0	-2.7	-0.8
